Screening data deposited in PubChem BioAssay by several laboratories.
GALR2 ag: GALR2 receptor agonists, primary screen, cell-based; GALR2-expressing cells, agonist activation read-out; Galanin receptor type 2 (Homo sapiens), O43603; hit rate 0.48% among 140,000; activation, %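 (tested at 5 µM)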;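 active means above mean plus 3 SD of all compounds, about 5% in these data, not always enough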;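 further: 0% = vehicle buffer wells and 100% = reference agonist at full effect; tested in CHO reporter cells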
Target sequence (O43603 whole entry, looked up): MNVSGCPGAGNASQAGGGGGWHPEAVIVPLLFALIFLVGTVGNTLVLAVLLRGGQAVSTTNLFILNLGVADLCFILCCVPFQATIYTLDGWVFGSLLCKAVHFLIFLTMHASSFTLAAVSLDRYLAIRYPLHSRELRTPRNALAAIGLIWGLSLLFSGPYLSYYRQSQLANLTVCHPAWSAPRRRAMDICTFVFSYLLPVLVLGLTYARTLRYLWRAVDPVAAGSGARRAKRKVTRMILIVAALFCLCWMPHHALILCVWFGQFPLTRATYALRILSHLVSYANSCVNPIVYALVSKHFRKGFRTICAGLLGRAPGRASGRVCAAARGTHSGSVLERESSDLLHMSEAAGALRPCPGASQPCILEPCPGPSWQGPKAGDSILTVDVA
HSV augment: enhancers of HSV replication in host cells, fold increase, host cell viability. maximum fold increase. HSV replication augmentation in cells. hit rate 0.005% among 220,000. AID 1956, 2009;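 active means peak rise of 1.5-fold or more in the series; tested in PC3 cells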;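 further: first round at 10 µM; read as green reporter fluorescence; hits show the peak of a series up to 25 µM; 1 = signal of infected wells without compound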
RGS16-Gao: modulators of RGS16 binding to Galphao, primary screen, biochemical, human proteins, multiplexed bead flow cytometry | Regulator of G-protein signaling 16 (Homo sapiens) + Guanine nucleotide-binding protein … | bead-based flow cytometry RGS16-Galphao binding, fluorescence; actives lie on both sides | binding response (% of control), % at 10 µM | hit rate 0.38% among 220,000;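 active means below 25% or above 175%, edge rows of some plates excepted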;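 further: Galphao activated by GDP with aluminum fluoride before binding; 100% = wells without compound and 0% = beads without RGS; some results beyond the cut were filed as inactive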
Target sequence (O15492 whole entry, looked up): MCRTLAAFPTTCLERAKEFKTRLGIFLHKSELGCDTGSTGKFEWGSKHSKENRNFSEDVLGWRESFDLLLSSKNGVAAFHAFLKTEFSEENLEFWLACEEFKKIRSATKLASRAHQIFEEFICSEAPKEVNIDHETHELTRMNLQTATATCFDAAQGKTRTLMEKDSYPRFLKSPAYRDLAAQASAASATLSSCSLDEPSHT
Target sequence (P09471 whole entry, looked up): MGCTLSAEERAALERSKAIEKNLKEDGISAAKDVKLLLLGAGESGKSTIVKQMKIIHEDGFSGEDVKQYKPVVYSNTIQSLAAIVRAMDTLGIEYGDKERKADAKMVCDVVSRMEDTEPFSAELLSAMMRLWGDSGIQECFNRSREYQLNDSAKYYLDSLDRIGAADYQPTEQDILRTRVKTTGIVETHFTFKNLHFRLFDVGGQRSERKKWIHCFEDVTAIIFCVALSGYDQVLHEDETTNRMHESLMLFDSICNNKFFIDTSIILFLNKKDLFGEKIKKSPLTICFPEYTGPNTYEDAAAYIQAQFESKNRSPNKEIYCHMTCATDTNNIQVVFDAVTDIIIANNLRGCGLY
Insulin prom inh: inhibitors of insulin promoter-driven GFP, primary screen, imaging, TRM-6 cells (human fetal islet line), eGFP reporter, cell count; reporter expression induced with tamoxifen; inhibition, % at 2 µM; hit rate 0.9% among 130,000; AID 1273, 2008;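 active means inhibition above the mean plus 3 SD, with well images judged a real hit on visual review, cut at about 60% in these data, passing the limit was not always enough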
PKD1 kinase inh: inhibitors of human PKD1 kinase, biochemical, fluorescence polarization | Serine/threonine-protein kinase D1 (Homo sapiens), Q15139 | inhibition, %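 (about 10 µM by stock and volumes)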 | hit rate 0.056% among 200,000 | AID 797, 2007 | PKD1 kinase fluorescence polarization assay;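 active means inhibition of 50% or more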;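 further: controls were vehicle for no effect and a reference inhibitor for full effect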
Insulin prom inh cell count: also measured in Insulin prom inh; calls as there; normalized cell count, %; measured here: cell count, toxicity; reference of the scale not given here;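 cells exposed to compound for 48 h; stained nuclei by imaging scaled within each plate; lower means fewer cells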
HSV augment primary fold: second read-out of HSV augment, no call of its own (marks repeat the call); fold increase; compound at 10 µM; measured here: primary screen fold increase 10 uM; tested in PC3 cells;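 GFP signal in the first replicate; 1 = infected wells without compound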
Numbers without * were called inactive; i = inactive; · = not tested or not shown.

SMILES | GALR2 ag | HSV augment | HSV augment primary fold | RGS16-Gao | Insulin prom inh | Insulin prom inh cell count | PKD1 kinase inh
Cc1ccc(S(=O)(=O)C2(C(=O)NCc3ccccc3Cl)CC2)cc1 | · | i | 1 | 99.4 | · | · | ·
O=C(CCSCCC(=O)N1CCCC1)N1CCCC1 | 0.3 | i | 0.99 | 101.0 | -23.1 | 71.1 | -5.4
COc1ccc(C(=O)Nc2ccc(NC(=O)c3cccs3)cc2)cc1Cl | 0.6 | i | 1.09 | 101.0 | -37.0 | 142.5 | -6.3
Cc1nn(C(=O)c2ccc3c(c2)OCO3)c(N)c1-c1ccccc1 | -3.1 | i | 0.9 | 103.2 | · | · | -14.3
CN1CCN(CCC(=O)Nc2ccc(OCc3ccccc3)cc2)CC1 | -2.2 | i | 0.69 | 104.7 | · | · | -9.7
CC(=O)NCCN=Cc1sc2ccccc2c1O | -1.8 | i | 0.85 | 104.9 | -76.9 | 219.9 | 10.3
Cc1ccc2nc(-c3ccc(SCC(=O)Nc4ccc5c(c4)OCCO5)nc3)[nH]c2c1 | -1.2 | · | · | 100.4 | 30.8 | 120.7 | 1.1
CC(=O)c1ccccc1OC(=O)c1ccco1 | -0.2 | i | 0.99 | 84.7 | -30.0 | 84.0 | -8.3
CC(=O)c1c(C)[nH]c(C(=O)CSc2nnc3ccccn23)c1C | -1.8 | i | 1 | 102.7 | 33.3 | 101.3 | -13.1
CCOc1ccc(NC(=O)CC2C(=O)N(c3ccc(OC)cc3)C(=S)N2Cc2ccccn2)cc1 (configuration not stated) | · | i | 0.96 | 93.8 | · | · | -4.5
C/C(=N\NC(=O)c1cccc([N+](=O)[O-])c1)c1ccncc1 | · | i | 0.99 | 75.6 | 22.2 | 84.4 | -4.6
Cc1cccc(-n2cnc(C(=O)N/N=C/c3ccccc3)c2)n1 | -2.5 | i | 0.96 | 102.6 | 42.9 | 133.8 | -2.5
CCC(Sc1ncnc2c1nnn2-c1ccc(F)cc1)C(=O)OC (configuration not stated) | -1.1 | i | 0.96 | 105.6 | -9.1 | 63.9 | 3.0
CC(C)CC(NC(N)=O)C(=O)NCc1ccc(Cl)cc1 (configuration not stated) | · | i | 0.97 | 106.5 | · | · | -9.3
CC1CCc2c(sc(NC(=O)c3ccccc3C(=O)O)c2C#N)C1 (configuration not stated) | · | i | 0.98 | 95.6 | · | · | -6.2
O=C(COc1ccc(Cl)cc1Cl)N(c1ccccn1)C1CCCCC1 | 1.1 | i | 1.13 | 102.5 | -79.3 | 127.7 | -6.2
CCC(CC)c1nnc(NC(=O)CS(=O)(=O)Cc2ccccc2)s1 | -1.0 | i | 1.04 | 98.4 | 62.8 | 91.5 | -13.9
COc1ccc(CCNC2=NCCS2)cc1OC | · | i | 1.06 | 102.8 | · | · | ·
Cc1cc(OC(C)C)c2c(-c3ccccc3)cc(=O)oc2c1 | -1.4 | i | 1.29 | 107.5 | -21.4 | 139.7 | -6.2
Cc1cc(NC(=O)c2cc(-c3ccc(O)cc3)on2)no1 | · | i | 1.11 | 72.7 | · | · | ·
O=C(Nc1ccccc1)N1CCNCC1 | · | i | 0.87 | 115.5 | · | · | ·
COc1ccc(/C=N/NC(=O)c2[nH]nc3c2CCc2ccccc2-3)cc1OC | 1.7 | i | 0.79 | 99.6 | -26.5 | 149.1 | 7.3
COc1ccc(NS(=O)(=O)c2cccc(NC(=O)CCS(=O)(=O)c3ccccc3)c2)cc1 | -0.2 | i | 0.88 | 108.9 | -20.0 | 119.5 | 4.3
O=C1c2ccccc2C(Nc2cccc(C(F)(F)F)c2)N1Cc1ccco1 (configuration not stated) | -1.2 | i | 0.97 | 97.9 | · | · | 2.6
CCN(CC)c1nc(C#N)nc(N(CC)CC)n1 | 0.8 | · | · | 104.3 | 7.4 | 81.2 | 3.2
O=C1CCCc2c1cc(C(=O)Nc1ccc(Cl)cn1)c(=O)n2-c1ccccc1 | 0.9 | i | 0.94 | 100.9 | 42.9 | 53.3 | -7.4
O=S(=O)(c1ccc(NC(=S)N/N=C/c2c3ccccc3cc3ccccc23)cc1)N1CCOCC1 | · | i | 0.98 | 101.3 | · | · | -1.7
OCc1cc(CO)c(O)c(CCc2ccccc2)n1 | -0.5 | i | 0.91 | 105.7 | 16.1 | 93.6 | -5.3
c1ccc(-c2nnc(N3CCOCC3)nc2-c2ccccc2)cc1 | -2.8 | i | 0.99 | 103.5 | · | · | 2.9
Cc1ccc(S(=O)(=O)N2CCOCC2)cc1C(=O)N(C)CCOc1ccc(Cl)cc1 | · | i | 0.89 | 107.3 | · | · | ·
CCOc1cc(NC(=S)NCCCN2CCOCC2)c(OCC)cc1NC(=O)c1cccc(F)c1 | · | i | 0.94 | 89.5 | · | · | 6.8
CCCCn1c(=O)[nH]c2nc3cc(N)ccc3nc2c1=O | -0.4 | · | · | 96.7 | · | · | 59.7*
COCCn1c(C)cc(C(=O)COC(=O)CCN2C(=O)c3ccccc3C2=O)c1C | -1.6 | i | 1.03 | 90.6 | 40.5 | 123.1 | 3.5
C/C(=N/NC(=O)c1ccccn1)c1c[nH]c2ccccc12 | · | i | 1.01 | 78.5 | · | · | ·
COc1ccccc1C(c1nnnn1CS(=O)(=O)c1ccc(C)cc1)N1CCSCC1 (configuration not stated) | -0.7 | i | 0.86 | 103.4 | · | · | -13.2
COc1ccc(S(=O)(=O)Cc2ccc(C(=O)N3CCN(C(=O)c4ccco4)CC3)o2)cc1 | -2.1 | i | 1.04 | 106.9 | · | · | 4.7
O=C(Cn1ncc2c3ccccc3n(Cc3ccccc3)c2c1=O)N1CCN(c2ncccn2)CC1 | -1.4 | i | 0.8 | 101.7 | 3.3 | 138.5 | 6.3
c1ccc2c(c1)CC(N1CCCCC1)c1ccccc1N2 (configuration not stated) | -2.5 | i | 0.94 | 130.2 | 15.6 | 128.0 | 6.0
CC(C)N(Cc1cnn(C)c1)Cc1nc(Cc2ccccc2Cl)no1 | · | i | 0.89 | 102.6 | · | · | 2.7
CC(C)Cc1nc(N2CCN(C(=O)C(C)C)CC2)c(C#N)c2c1CCC2 | -1.2 | i | 0.947 | 78.5 | 42.9 | 65.6 | -14.3

The list goes on, starting with the last two of the part before.
SMILES | GALR2 ag | HSV augment | HSV augment primary fold | RGS16-Gao | Insulin prom inh | Insulin prom inh cell count | PKD1 kinase inh
CC(C)N(Cc1cnn(C)c1)Cc1nc(Cc2ccccc2Cl)no1 | · | i | 0.89 | 102.6 | · | · | 2.7
CC(C)Cc1nc(N2CCN(C(=O)C(C)C)CC2)c(C#N)c2c1CCC2 | -1.2 | i | 0.947 | 78.5 | 42.9 | 65.6 | -14.3
COc1cccc(NC(=O)C(Sc2nc3ccccc3c(=O)n2CC(C)C)c2ccccc2)c1 (configuration not stated) | -1.7 | i | 1.09 | 104.5 | · | · | 6.6
CCCNC(=S)N1CCN(Cc2ccc3c(c2)OCO3)CC1 | · | i | 0.98 | 108.3 | -26.7 | 79.0 | 1.7
Cc1cc(C)n(C(=O)c2ccc(S(=O)(=O)NCC3CCCO3)cc2)n1 (configuration not stated) | -4.2 | i | 0.93 | 107.0 | 18.2 | 90.1 | -3.4
O=C(CCCOc1ccc(Cl)cc1Cl)NN1CCOCC1 | -2.0 | i | 0.92 | 108.3 | -73.3 | 90.5 | -11.1
COc1ccc(C(=O)CC(Nc2ccc([N+](=O)[O-])cc2)c2ccc(OC)cc2)cc1 (configuration not stated) | -3.4 | i | 0.78 | 98.9 | 17.4 | 110.5 | -1.9
O=C(OCn1ncc(Br)c(Br)c1=O)c1ccc(F)cc1 | -5.1 | i | 0.43 | 99.0 | -185.7 | 6.5 | 4.6
Cc1ccc(S(=O)(=O)NNC(=O)c2cc3cc4ccccc4nc3s2)cc1 | -1.7 | i | 0.9 | 102.8 | 20.0 | 51.5 | -3.3
O=c1oc2ccccc2c(N2CCOCC2)c1[N+](=O)[O-] | · | i | 0.95 | 102.7 | · | · | -1.9
Cc1ccc(-c2nc3sc4c(N)ncnc4c3c3c2CCCC3)cc1 | 0.9 | i | 0.83 | 100.3 | -35.0 | 64.5 | -4.1
O=C(CSc1nc2c(sc3ccccc32)c(=O)n1Cc1ccccc1)NCC1CCCO1 (configuration not stated) | -4.7 | i | 0.96 | 97.6 | 11.1 | 116.2 | -6.9
CCOC(=O)C1=NN(c2cccc(Cl)c2)C2=NC(C)=C(C(=O)OC)C(c3cccs3)N12 (configuration not stated) | -1.9 | i | 0.78 | 97.6 | 25.0 | 137.3 | -3.5
CCOC(=O)c1c(-c2cccs2)csc1NC(=O)C(C)(C)C | -0.1 | i | 0.9 | 104.2 | -23.3 | 91.9 | 0.3
O=S(=O)(NC1CCN(Cc2ccccc2)CC1)c1ccc(Cl)cc1 | · | i | 1.07 | 114.5 | · | · | ·
C=C1C2(C(=O)Nc3ccc(SC(F)F)cc3)CCC(C2)C1(C)C (configuration not stated) | -2.8 | i | 1.17 | 94.8 | · | · | -4.7
CCC(C)c1ccc(OCCn2cc(/C=N/NC(=O)CSc3nnc(C)s3)c3ccccc32)cc1 (configuration not stated) | -2.5 | i | 1.06 | 101.3 | -66.7 | 136.9 | 1.3
COc1ccc(C2OC(=O)Cc3cc(OC)c(OC)cc32)cc1 (configuration not stated) | · | i | 0.94 | 98.7 | 16.7 | 134.2 | 0.8
CCc1ccc(NC(=O)C(C)Nc2ccc(S(=O)(=O)NC(C)=O)cc2)cc1 (configuration not stated) | -0.5 | i | 1.12 | 103.9 | · | · | 6.7
O=S(=O)(Nc1ccccc1)c1ccc(F)cc1 | -2.8 | i | 0.86 | 88.1 | 19.4 | 161.4 | -2.9
CCO[C@@H]1OC(C(N)=O)=C[C@H](C2CCCCC2)[C@H]1CCCO | · | i | 0.92 | 99.3 | · | · | ·
O=S(=O)(c1ccc(NC2CCCc3ccccc32)nc1)N1CCOCC1 (configuration not stated) | -2.2 | i | 0.81 | 97.4 | 21.2 | 82.9 | -2.4

Molecules above that have a furan ring, fused or not, in the order listed:
SMILES | GALR2 ag | HSV augment | HSV augment primary fold | RGS16-Gao | Insulin prom inh | Insulin prom inh cell count | PKD1 kinase inh
CC(=O)c1ccccc1OC(=O)c1ccco1 | -0.2 | i | 0.99 | 84.7 | -30.0 | 84.0 | -8.3
O=C1c2ccccc2C(Nc2cccc(C(F)(F)F)c2)N1Cc1ccco1 (configuration not stated) | -1.2 | i | 0.97 | 97.9 | · | · | 2.6
COc1ccc(S(=O)(=O)Cc2ccc(C(=O)N3CCN(C(=O)c4ccco4)CC3)o2)cc1 | -2.1 | i | 1.04 | 106.9 | · | · | 4.7

Other entries follow.
SMILES | GALR2 ag | HSV augment | HSV augment primary fold | RGS16-Gao | Insulin prom inh | Insulin prom inh cell count | PKD1 kinase inh
Cc1noc(C)c1COc1ccc(C(=O)OCC(=O)N2c3ccccc3NC(=O)C2(C)C)cc1 | -1.8 | i | 1.03 | 96.4 | 11.5 | 114.8 | -1.7
O=C(NCCc1nc2ccccc2[nH]1)/C(=C/c1ccc(F)cc1)NC(=O)c1ccco1 | · | i | 0.86 | 99.2 | · | · | ·
COc1cccc(CNC(=O)C2CCN(S(=O)(=O)c3ccc4c(c3)CCC(=O)N4)CC2)c1 | -2.2 | i | 1 | 244.1 | · | · | -13.0
CCO[C@H]1OC(C(=O)N2CCOCC2)=C[C@@H](c2ccc(C(F)(F)F)cc2)[C@@H]1CCCO | · | i | 0.86 | 92.7 | · | · | -6.5
CCC(=O)c1ccc(OCC(=O)Nc2ccc3nc(C)sc3c2)cc1 | · | i | 0.94 | 102.0 | · | · | ·
COc1ccc(N(C(=O)/C=C/C(=O)Nc2cc(C)on2)C(C(=O)NC2CCCC2)c2ccccc2C)cc1 (configuration not stated) | -1.5 | i | 0.66 | 74.4 | 32.4 | 79.3 | -12.9
O=C(COc1ccccc1)NNc1nc2c(F)cccc2s1 | · | i | 0.98 | 103.7 | 36.8 | 89.3 | 0.2
CCc1ccccc1NC(=S)NNC(=O)c1ccccc1Cl | · | i | 1.01 | 101.7 | 42.1 | 111.4 | 7.2
COCCCNC(=O)CN1C(=O)/C(=C/c2ccccc2)Sc2ccccc21 | · | i | 0.87 | 103.1 | · | · | ·
CCOC(=O)c1[nH]c(C)c(C(=O)NC)c1C | -1.8 | i | 0.93 | 101.5 | · | · | -1.9
CCCOc1ccc(CSC(CC(=O)O)C(=O)O)cc1 (configuration not stated) | -1.6 | i | 1 | 93.6 | · | · | 2.5
CC1=CC(C)(C)NC(=S)N1c1ccc2ccccc2c1 | -1.6 | i | 0.82 | 101.0 | -6.7 | 151.2 | -4.1
O=C1C2C3C=CC(C3)C2C(=O)N1CCN1CCN(Cc2ccc([N+](=O)[O-])cc2)CC1 (configuration not stated) | · | i | 1.04 | 98.0 | -17.6 | 152.4 | 0.5
